# NPYLR7 ag: mosquito NPYLR7 agonism; HEK293T NPYLR7/Galpha15, GCaMP6s calcium fluorescence; AID 1259423; 270,000 tested, 0.15% active; activation, % at 10 µM; in the data active = activation above about 40%;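 note: 0% = vehicle and 100% = reference agonist at the receptor; some compounds past the cut are filed as inactive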
# NPYLR7 ag max-min: also measured in NPYLR7 ag; calls as there; activation, %; measured here: Max-Min RFU normalised activation; some inactives read as strong as hits;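 span of the calcium signal over five minutes; 0% = vehicle and 100% = native peptide agonist; compound fluorescence can raise it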
# Starred values were filed as active, the others as inactive; & = joins results of further samples. Some of the compounds tested; rates above refer to the full screens.
# Every second line gives: NPYLR7 ag | NPYLR7 ag max-min
- COc1cccc(C2=NN(C(=O)CN3CCc4ccccc4C3)C(c3ccc(OC)cc3OC)C2)c1 (centres undefined)
→ 0 | 7
- C[C@@H](NC(=O)/C=C/c1ccc2c(c1)OCO2)C(C)(C)C
→ -1 | -6
- CC1SC2(C(=O)Nc3ccccc32)N(c2ccccc2)C1=O (centres undefined)
→ 0 | -4
- CCCCC(c1cccnc1)N(C)C(=O)c1cc(=O)n(C)c(=O)n1C (centres undefined)
→ 2 | 1
- CCS(=O)(=O)c1ccc(-c2cc(N)nc3[nH]ccc23)s1
→ 5 | 4
- O=S(=O)(NCCSc1ccccc1)c1ccc2c(c1)OCCO2
→ 0 | 13
- CN(c1cc(-c2ccccc2)nc(SCc2ccc(C(=O)NC3CC3)o2)n1)C1CCCCC1
→ 5 | 22
- Cc1ccccc1OCc1ccc(-c2nc(C#N)c(N3CCOCC3)o2)o1
→ 0 | 26
- CSCc1ccc(C(=O)N2CCC(CCC(=O)NCC3CCCO3)CC2)o1 (centres undefined)
→ 19 | 12
- CNC(=O)c1cc(Sc2ccc(C)cc2)ccn1
→ 11&0 | 6&1
- C=CCN1C(=O)/C(=C2/C(=O)N(C)c3ccccc32)SC1=S
→ -10 | -14
- O=C(Nc1cccc(-c2cccc(-c3ccc(F)cc3)n2)c1)C(Cl)(Cl)Cl
→ 4 | 1
- CCCCN(C)c1c(C)nc2ccc(C(=O)N3CCN(C)CC3)cn12
→ -4 | -10
- O=C(OCc1cc(-c2ccc3c(c2)OCCO3)on1)c1ccc(=O)oc1
→ -4 | -5
- Oc1ccccc1N1CCN(c2cncc(Cl)n2)CC1
→ 1 | -3
- C=CCN=c1scc(-c2ccc(F)cc2)n1N=Cc1c(OC)cc(OC)cc1OC
→ 7 | 6
- CSc1ncccc1C(=O)NCC(c1cccn1C)N1CCCC1 (centres undefined)
→ -9 | -12
- C=CCN(Cc1cccnc1)Cc1nc[nH]c1C
→ 2 | 2
- Clc1cccnc1NCc1cccnc1-n1cnc2ccccc21
→ 1 | -1
- CCC(C(=O)OC)N1CCOc2c(O)cc(-c3ccc(C)s3)cc2C1 (centres undefined)
→ 13 | 4
- CCP(=Nc1ccc([N+](=O)[O-])cc1)(c1c(C)nn(-c2ccccc2)c1C)N(C)C (centres undefined)
→ -3 | -3
- Cc1nc(C(C)C)sc1C(=O)NCc1noc(-c2ccco2)n1
→ -7 | -11
- COc1ccc(CN2CCC(CNC(=O)c3cccc(O)c3)C2)cc1 (centres undefined)
→ -2 | -4
- Cc1ccc(-c2cnc(CCC(=O)Nc3ncc(C)s3)o2)cc1
→ 0 | -2
- CN1CCC[C@@H]1CCO[C@](C)(c1ccccc1)c1ccc(Cl)cc1
→ 13&0&-2 | 9&-6&-6
- CCNC(=O)N1CCN(C(=O)C(C)(C)c2ccccc2F)CC1
→ 5&9 | 1&-3
- O=C(c1csc(-c2cccs2)n1)N1CC(=O)N(C2CCCCC2)CC(OCc2cccnc2)C1 (centres undefined)
→ 3 | -11
- COCCN(CC(=O)N(CCc1c[nH]c2ccccc12)Cc1ccc(C(F)(F)F)cc1)C(=O)Nc1ccc(F)cc1F
→ 9 | 18
- Cc1cc(C)cc(Nc2ncc3c(n2)CCN(C(=O)c2ccco2)C3)c1
→ -4 | -10
- COc1ccc(-c2nc3ccccn3c2NC(=O)COc2ccccc2)cc1
→ -10 | -1
- CCc1nc(Nc2ccccc2)c2ccc(Cl)cc2n1
→ 4 | 10
- C/C=C/CN1CC=C(C(CC)NC(=O)COC)CC1 (centres undefined)
→ 11 | 2
- CN(Cc1cnn(-c2ccccc2)c1)C(=O)CCc1nc2ccccc2c(=O)[nH]1
→ 0 | 10
- CC(=O)N1N=C(c2ccc(NS(C)(=O)=O)cc2)CC1c1ccc2c(c1)OCO2 (centres undefined)
→ 4 | 9
- CN(C)CCNc1ncnc2c1sc1nc(N3CCOCC3)c3c(c12)CC(C)(C)OC3
→ 0 | 0
- CN1CCN(C(=O)Cn2cnc3scc(-c4cccs4)c3c2=O)C(C)(C)C1=O
→ 8 | 5
- CN(Cc1ccccc1)c1cc(C(C)(C)C)nc(SCc2cccc(C(=O)NCc3cccnc3)c2)n1
→ 5 | 7
- Cc1cc(NC(=O)CN(C)c2c(C#N)cnc3c(C)cccc23)no1
→ -6 | -7
- CCNc1cc(NCCNC(=O)Nc2ccc3c(c2)OCO3)nc(C)n1
→ 0 | -1
- N#Cc1ccccc1CN1CCN(c2ncc(C(=O)N3CCCCC3)s2)C1=O
→ -3 | -5
- O=C(CC1c2ccccc2CCc2ccccc21)NCCN1CCCCC1=O
→ 3 | 0
- N#CC1=C2Sc3ccccc3N2C(O)(C(F)(F)F)C(C(=O)C(F)(F)F)=C1 (centres undefined)
→ 13 | 22
- COc1ccc(OC)c(-c2nc(CN3C[C@@H](C)O[C@@H](C)C3)c(C)o2)c1
→ 8 | 3
- Cc1cn2c3c(=O)n(Cc4ccc(F)cc4)c(=O)n(C)c3nc2n1Cc1ccco1
→ 2 | 3
- CC(C#N)Sc1nc2scc(C3CC3)c2c(=O)n1-c1ccccc1 (centres undefined)
→ 0 | 1
- CCC1c2ccsc2CCN1CC(=O)NCc1cccc(Cl)c1 (centres undefined)
→ -8 | -11
- Cc1ccc(C2=NN(S(=O)(=O)c3ccccc3)C(c3ccccc3O)C2)cc1 (centres undefined)
→ -8 | -8
- CCSC1CCCC1NC(=O)C1CCOc2ccccc21 (centres undefined)
→ -23 | -25
- CC1CCCC(NC(=O)C2CC=CCC2C(=O)N2CCc3ccccc3C2)C1 (centres undefined)
→ -13 | -22
- Cc1ccc(-c2[nH]ncc2CN2CCC(c3nc4ccccc4[nH]3)CC2)cc1C
→ -4 | -6
- Cc1cc(C)nc(CN2CCC(=O)N(Cc3ccc(F)cc3)C(C(C)C)C2)n1 (centres undefined)
→ 28 | 14
- CCOc1ncccc1CN1CCC(C(=O)N2CCC[C@H]2C(=O)OCc2ccccc2)CC1
→ 0 | -8
- CCOc1c(CC)cnc2c1c(=O)n(CC(=O)NCCOC)c(=O)n2C
→ -3 | -5
- Cc1cccc(C=C(C#N)c2nc(N)nc(N(C)C)n2)c1
→ 26 | 17
- CCOc1cccc(/C=C2/SC(=Nc3ccc(C(F)(F)F)cc3)C(C(=O)OC)=C2O)c1O
→ -10 | -2
- CCc1nc2c(OCC=C(C)C)cccn2c1N(C)C(=O)Nc1ccccc1OC
→ 7 | -6
- O=C(Cn1nnnc1CN1CCOCC1)N1CCN(C/C=C/c2ccccc2)CC1
→ 5&-2 | 0&-2
- Cc1cccc2sc(N(Cc3cccnc3)C(=O)c3ccco3)nc12
→ -9 | -2
- CCCCC(=O)Nc1c(-c2cc(C)cc(C)c2)nc2cc(C)ccn12
→ -8 | -1
- CC(=O)c1ccc(NC(=O)CC(C)n2cncn2)cc1 (centres undefined)
→ 1 | 5

# Carrying on.
# Every second line gives: NPYLR7 ag | NPYLR7 ag max-min
- COC(=O)C(c1ccc(F)cc1Cl)C1C=CC(NC(=O)c2ccc(OC)cc2OC)C1 (centres undefined)
→ 24 | 28
- CC(C)N1C(=O)COCc2ccc(-c3cccc(O)c3)cc21
→ 3 | 0
- COc1ccc(Cn2cnc3cnc(-c4cccc(Cl)c4)cc32)cc1OC
→ 26 | 11
- COc1nc2ccccc2cc1-c1c(-c2ccccc2)ncn1C(CO)CO
→ 2 | 4
- Cc1cc(NC2CCCC2)n2nc(C)c(-c3ccccc3Cl)c2n1
→ 0 | -3
- CN1c2ccccc2C(=O)NC1c1cc(Br)c2c(c1)OCCCO2 (centres undefined)
→ 6 | 4
- O=C(NCCc1ccccn1)c1csc(CSc2nnc(-c3ccncc3)n2-c2ccccc2Cl)n1
→ -17 | -19
- COc1ccccc1CCC(=O)NC1C2CC3CC(C2)CC1C3 (centres undefined)
→ 15 | 9
- CCC(NC(=O)c1ccc(-c2ccccc2)[nH]1)c1ccnn1C (centres undefined)
→ 3 | 5
- CCCCn1c(=O)[nH]c(=O)c2c1nc(COC(=O)C1CC1)n2CC
→ 0 | 4
- COCc1cnc2c(c1SCC(=O)Nc1ccc(OC)c(OC)c1)c(=O)n(C)c(=O)n2C
→ 3 | 9
- N=C(N)SCCc1cccc(CCSC(=N)N)c1
→ -1 | 27
- Cc1nc2sccn2c(=O)c1NC(=O)c1ccc(Cl)nc1
→ 24 | 18
- COc1ccc(C2SCC(=O)N2CC(=O)N2CCN(C)CC2)cc1 (centres undefined)
→ 17 | 30
- Cc1nonc1C1CCCN1Cc1cnc(S(=O)(=O)C(C)C)n1Cc1ccccc1F (centres undefined)
→ -5 | -6
- Cc1ccc(NC(=O)N2CCC3(CC2)C(=O)N(CC(=O)N2CCOCC2)CN3c2ccccc2)cc1Cl
→ 21 | 25
- CCOC(=O)c1c(NC(=O)CCl)sc(C(N)=O)c1C
→ -5 | -13
- O=C(Nc1ccc(Cl)cc1F)c1cccc(CN2CCCC2=O)c1
→ 1 | 1
- CCc1nc2c(OCc3ccccc3C)cccn2c1N(C)C(=O)CC(C)C
→ 3 | 5
- Cc1ccc(C(=O)NCC(=O)N2CCOC(COc3ccc(Cl)c(C)c3)C2)cc1 (centres undefined)
→ 6 | 17

# 7 records picked at random from those above, as already listed:
# Every second line gives: NPYLR7 ag | NPYLR7 ag max-min
- Cc1ccc(C(=O)NCC(=O)N2CCOC(COc3ccc(Cl)c(C)c3)C2)cc1 (centres undefined)
→ 6 | 17
- CN1c2ccccc2C(=O)NC1c1cc(Br)c2c(c1)OCCCO2 (centres undefined)
→ 6 | 4
- N=C(N)SCCc1cccc(CCSC(=N)N)c1
→ -1 | 27
- COCc1cnc2c(c1SCC(=O)Nc1ccc(OC)c(OC)c1)c(=O)n(C)c(=O)n2C
→ 3 | 9
- COc1ccc(C2SCC(=O)N2CC(=O)N2CCN(C)CC2)cc1 (centres undefined)
→ 17 | 30
- CCOC(=O)c1c(NC(=O)CCl)sc(C(N)=O)c1C
→ -5 | -13
- COc1nc2ccccc2cc1-c1c(-c2ccccc2)ncn1C(CO)CO
→ 2 | 4

# (more compounds)
# Every second line gives: NPYLR7 ag | NPYLR7 ag max-min
- Cc1ccc(C)c(C(NC(=O)Cn2cccnc2=O)c2cccnc2)c1 (centres undefined)
→ -6 | -9
- COc1ccc(N(C)S(=O)(=O)c2ccc(OC)c(N3CCN(C(=O)/C=C/c4ccccc4)CC3)c2)cc1
→ -2 | -9
- N#CC1=C(SCC(=O)Nc2ccc(Br)cc2)NC(=O)CC1c1cccc2ccccc12 (centres undefined)
→ 6 | -1
- Nc1cc(C(=O)c2ccccc2)c(N)c2c1C(=O)c1ccccc1C2=O
→ 17 | 14
- Cc1ccccc1C1(O)CCN(Cc2nc(-c3ccco3)no2)C1 (centres undefined)
→ -5 | -10
- COc1cn(CC(=O)Nc2ccc(C)cc2)c(CSc2nnnn2C)cc1=O
→ -7 | -14
- O=C(c1ccco1)N1CCN(C(=O)c2ccc(Cn3cc(Br)cn3)o2)CC1
→ 3 | 4
- Fc1ccc(N2CCN(c3nc4ccc(Cl)cc4n4cnnc34)CC2)cc1
→ -6 | -2
- CN(CCc1ccccn1)C(=O)CCCc1cn(S(=O)(=O)c2cccs2)c2ccccc12
→ -10 | -18
- CCOc1ccc(NC(=O)Cn2c(-c3ccc(-c4ccccc4)o3)nc(C)c2C)cc1
→ 17 | 6
- CCC(C(=O)N1CCCC1)n1nc(C)n2c(cc3occc32)c1=O (centres undefined)
→ 12 | 10
- CSc1ccc(-c2nc3ncccn3c2Nc2ccc3c(c2)OCO3)cc1
→ 0 | -3
- N#CCCC(C#N)CN1CCN(CCOc2ccccc2)CC1 (centres undefined)
→ 1 | 1
- Cc1ccccc1-c1noc(CN(C)C(C)c2ccon2)n1 (centres undefined)
→ 17 | 8
- COc1ccc(N2CCN(c3cc(C(=O)NC4CCCc5ccccc54)c4ccccc4n3)CC2)cc1 (centres undefined)
→ 6 | 0
- NC(=O)c1ccc(C(=O)Nc2cnc(Br)c(Br)c2)nc1
→ -1 | -2
- CCOc1ccc(Br)cc1CNc1nn[nH]n1
→ 14 | 3
- CCOC(=O)[C@@H]1CN2CCN(C(=O)c3ccc4c(c3)OCCCO4)C[C@@H]2[C@H]1c1ccccc1
→ 1 | 1
- N#CC(=Cc1ccc(Cl)s1)C(=O)N1CCN(c2ccccc2)CC1
→ 1 | 1
- COCc1nc(NCc2ccc3c(c2)n(C)c(=O)n3C)c2cnn(C)c2n1
→ 2 | -1
- Cc1ccc(-n2c(-c3ccc(Cl)cc3)cc(C(=O)NC(C)c3ccccc3)c2C)cc1 (centres undefined)
→ 0 | 12
- O=C(Nc1cccnc1N1CCN(C(=O)CCCOc2ccccc2)CC1)c1ccc2c(c1)OCO2
→ -4 | -17
- Cc1ccccc1C(=O)Nc1ccc(CN2CCCCC2C)cc1 (centres undefined)
→ 2 | 1
- Cc1cc(C)n(C(C)C(=O)Nc2c(F)cccc2N2CCCC2)n1 (centres undefined)
→ 5 | 4
- COC(=O)CCOc1ccccc1NC(=O)COc1ccccc1F
→ 4 | 6
- NC(=O)c1c(NC(=O)CCCC(=O)O)sc2c1CCCC2
→ 5 | 2
- CCC(C(=O)N1CCN(c2nc(C)nc(COC)c2Cc2ccc(OC)cc2)CC1)c1ccccc1 (centres undefined)
→ -4 | -3
- Cc1ccc(NC(=O)CSc2nc(=O)n(Cc3cccnc3)c3c2CCC3)cc1Cl
→ -3 | -4
- CN(C)c1nc(N)nc(COc2ccc(Cl)cc2Br)n1
→ -7 | -5
- CC1CC1C(=O)N1CCC(N(C)Cc2cccc(C(F)(F)F)c2)CC1 (centres undefined)
→ 1 | 0
- CCc1cccc(N2CCC(NC(=O)Nc3nccs3)CC2)c1
→ -21 | -23
- COc1ccc(C2=N/C(=C/c3cccnc3)C(=O)O2)cc1Br
→ -9 | -13
- O=C(NC(N1CCOCC1)(C(F)(F)F)C(F)(F)F)c1ccccc1
→ 12 | 12
- CNc1ccc(-c2cccc(S(C)(=O)=O)c2)cn1
→ 6 | 3
- CCCN1C(=O)C(c2c(C)[nH]n(-c3cccc(Cl)c3)c2=O)=C([n+]2cccc(CC)c2)C1=O
→ -14 | -12
- Cc1ccc(-c2ccc(=O)n(CCCNC(=O)COc3cccc(C)c3C)n2)cc1
→ -3 | -5
- O=C(Cn1nnn(-c2cccs2)c1=O)NC1CCSc2ccc(Cl)cc21 (centres undefined)
→ 8 | 6
